S aureus helic: blocks Staphylococcus aureus DNA helicase | inhibition, %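 (tested at about 80 µM)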 | purified S. aureus helicase, fluorescence unwinding assay; about half of the hits fall short of the stated cut | hit rate 0.05% among 120,000 | AID 485395;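 active means both duplicates at 50% or more, or one of them with a favoured structure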;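 further: 0% = mean of negative control wells and 100% = mean of positive control wells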
MgrA DNA FP: alters Staphylococcus aureus MgrA binding to DNA; inhibition, %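 (about 10 µg/mL by stock and volumes)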; fluorescence polarization; hit rate 0.13% among 84,000;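 active means above 50% in either of two replicates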;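 further: 0% = protein plus DNA without compound and 100% = DNA alone without protein; higher means less MgrA bound to DNA so lower polarization; one replicate is shown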
An asterisk follows results filed as active; . = not tested or not shown. This is a subset, so the mix of outcomes need not match the whole.

Value order – S aureus helic | MgrA DNA FP
Cc1ccc(C(=O)Cn2c(C)[n+](C)c3ccccc32)cc1
    16.0 | .
O=C(O)CSc1nccn1Cc1ccccc1
    12.0 | -1.2
Cc1ccc(C(=O)NNc2nnc(C)c(=O)[nH]2)cc1
    5.0 | .
Cc1cc(C(=O)Nc2ccc3c(c2)OCCO3)no1
    . | -0.2
O=C(O)CSC1=NC2CCCCC2N1 (stereo not drawn)
    -7.0 | 1.3
CC1CCN(S(=O)(=O)c2cc(S(=O)(=O)N3CCC(C)CC3)c3cccc4c3c2SC4=O)CC1
    -27.0 | .
CCCCC(=O)Nc1ccc2oc(-c3ccc(OC)c(Cl)c3)nc2c1
    -15.0 | .
S=c1[nH]c(-c2ccccc2)cn1/N=C/c1ccc2c(c1)OCO2
    -14.0 | .
CCCS(=O)(=O)c1cnc(SC)nc1N
    . | 1.1
CNC(=O)c1cccc2cccc(Br)c12
    . | 0.7

Continued; the last five above are carried over.
Value order – S aureus helic | MgrA DNA FP
CC1CCN(S(=O)(=O)c2cc(S(=O)(=O)N3CCC(C)CC3)c3cccc4c3c2SC4=O)CC1
    -27.0 | .
CCCCC(=O)Nc1ccc2oc(-c3ccc(OC)c(Cl)c3)nc2c1
    -15.0 | .
S=c1[nH]c(-c2ccccc2)cn1/N=C/c1ccc2c(c1)OCO2
    -14.0 | .
CCCS(=O)(=O)c1cnc(SC)nc1N
    . | 1.1
CNC(=O)c1cccc2cccc(Br)c12
    . | 0.7
CSc1nnc(CCNC(=O)Nc2ccccc2)n1C(C)C
    8.0 | 3.5
Cc1noc2ncn(CC(=O)NC(C)C)c(=O)c12
    3.0 | .
CC(C)(C)c1cc(C(=O)NCCCn2ccnc2)cc(C(C)(C)C)c1
    3.0 | -1.1
O=S1(=O)CCC2CC=CCC21 (stereo not drawn)
    5.0 | -1.8
CCc1c(O)nc(SC(C)C(=O)Nc2ccc(S(N)(=O)=O)cc2)n(-c2ccccc2)c1=O (stereo not drawn)
    15.0 | 0.0
O=c1c2cc(N3CCOCC3)ccc2[nH]c(=S)n1CCc1ccccc1
    10.0 | 3.4
O=C(CC(Sc1ccc(C(F)(F)F)cn1)C(=O)O)c1ccc(Br)cc1 (stereo not drawn)
    . | 6.2
CCOC(=O)c1c(C)oc2c1c(CN1CCN(c3ccccc3)CC1)c(O)c1ccccc12
    -3.0 | .
CCN(CC)c1ccc(NC(=O)Nc2ccc(Cl)cc2)cc1
    7.0 | -1.0
O=C1CCOc2c(F)cc(F)cc21
    . | 3.3
O=C(CSCc1ccccc1Cl)NC1CC1
    3.0 | 0.9
Cc1cnc(C(=O)Nc2ccccc2F)cn1
    -7.0 | 0.0
Cc1noc(C)c1C(=O)N(C)C1CCCc2ccccc21 (stereo not drawn)
    -8.0 | .
CCOC(=O)N1CCN(CC(O)COCc2ccccc2)CC1 (stereo not drawn)
    14.0 | .
O=C(O)CCCNc1ncnc2ccccc12
    -1.0 | 1.1
Oc1ccccc1CNc1ccc(F)c(Cl)c1
    -8.0 | .
N#CCS(=O)(=O)Cc1c(F)cccc1Cl
    . | -2.5
O=S1(=O)CCC(N=Cc2ccc(-c3cccc(C(F)(F)F)c3)o2)C1 (stereo not drawn)
    0.0 | -7.1
NC(=O)CCC1COc2ccccc2O1 (stereo not drawn)
    23.0 | .
COC(=O)C1=C(C(=O)c2ccccc2)C(c2ccc(OC)c(OC)c2)Nc2nnnn21 (stereo not drawn)
    3.0 | .
COC(=O)Cn1cnc2c1c(=O)n(C)c(=O)n2C
    2.0 | 1.8
O=C(CSc1ncnc2[nH]ncc12)c1ccccc1
    5.0 | .
Cc1nn(-c2ccccc2)c(Cl)c1C1C(C#N)=C(N)OC2=C1C(=O)CCC2 (stereo not drawn)
    -3.0 | .
COC(=O)C1(CCSC)NC(c2ccc(N(C)C)cc2)C2C(=O)N(C)C(=O)C21 (stereo not drawn)
    20.0 | -18.0
Cc1c(/C=N/NC(=O)c2cc(Br)ccc2O)c(=O)n(C)c(=O)n1C
    15.0 | .
CCc1nnc(NC2=NS(=O)(=O)C(c3cccc(Br)c3)=C2C)s1
    9.0 | .
O=C(Oc1cccc2cccnc12)c1cccc(F)c1
    9.0 | .
CC(C(=O)NC1CCCCCC1)n1c2ccccc2c2cnn(C)c(=O)c21 (stereo not drawn)
    -16.0 | .
O=C(c1cc2ccccc2oc1=O)N(c1ccccn1)C1CCCCC1
    -5.0 | 1.8
O=C(C1CCN(S(=O)(=O)c2ccccc2)CC1)N1CCCC1
    14.0 | 1.8
CCCCc1oc2ccccc2c1C(=O)c1ccc(O)cc1
    4.0 | 2.6
CCOc1ccc(-n2c(CSc3nc4ccccc4o3)nc3ccccc3c2=O)cc1
    -9.0 | .
O=C1N/C(=N\c2ccccn2)SC1Cc1cccc(C(F)(F)F)c1 (stereo not drawn)
    . | -0.9
N#Cc1ccsc1NC(=O)COC(=O)c1cc(-c2ccccc2)nn1-c1ccccc1
    -23.0 | .
CC(=O)O/N=C1\Sc2ccccc2C1=O
    -22.0 | .
CC1CCCCC1NC(=O)CCn1nc(-c2ccccc2)ccc1=O (stereo not drawn)
    6.0 | -1.1
C/C(CC1(O)/C(=N/O)CCc2nonc21)=N\O (stereo not drawn)
    . | -1.6
Clc1cccc(Cl)c1Cn1nnc(N2CCCC2)n1
    . | -0.6
CCC(Sc1nc2cc(OC)c(OC)cc2c(=O)n1Cc1ccco1)C(=O)Nc1ccccc1OC (stereo not drawn)
    7.0 | .
CC(=O)Nc1cccc2ncccc12
    -17.0 | -1.1
NS(=O)(=O)c1ccc(S(=O)(=O)N(Cc2ccccc2F)CC2CCCO2)cc1 (stereo not drawn)
    2.0 | 0.3
CCCNC(=O)c1c(C)oc2ncnc(N3CCCCC3)c12
    -13.0 | .
CCOC(=O)c1oc2ccccc2c1NC(=O)CSc1nnc(SCC)s1
    0.0 | .
COC(=O)c1cc(S(=O)(=O)N(C)C2CCCCC2)c[nH]1
    -1.0 | 1.4
COC(=O)c1cc(-c2cc(OC)c(OC)c(OC)c2)nn1-c1ccccn1
    4.0 | .
O=C(CO/N=C/c1ccccc1)N=Nc1c(O)n(CN2CCCC2)c2ccccc12
    17.0 | .
O=C(NC1CCCCC1)C1c2ccccc2C(=O)N1Cc1ccco1 (stereo not drawn)
    . | -1.8
CCOC(=O)c1cc(-c2ccc(/C=C3\C(=O)N(c4cccc(C(=O)O)c4)N=C3C)o2)ccc1Cl
    . | 0.8
CCOC(=O)CSc1nnc(-c2ccc3ncccc3c2)n1C
    . | -0.5
O=C(NC1CCCCC1)C(c1cccs1)N(C(=O)CC1CC2CCC1C2)c1ccccc1 (stereo not drawn)
    9.0 | 5.8

New compounds follow
Value order – S aureus helic | MgrA DNA FP
Cc1cc(C)c(C#N)c(SC2CCc3ccccc3C2=O)n1 (stereo not drawn)
    3.0 | 1.4
CC(CNS(=O)(=O)c1ccccc1)(c1ccccc1)N1CCCCC1 (stereo not drawn)
    -2.0 | -0.8
Cc1nc2ccccc2n1C(F)(F)C(O)c1ccco1 (stereo not drawn)
    -22.0 | -0.1
Nc1n[nH]c(CC2CCCCC2)n1
    -3.0 | -1.5
CC1(O)CCCCCCCCCCC1
    . | 1.4
CN(C(=S)NCc1ccc2c(c1)OCO2)C1CCS(=O)(=O)C1 (stereo not drawn)
    0.0 | .
CN(CCC#N)C(=O)C1CC(=O)N(Cc2ccco2)C1 (stereo not drawn)
    -11.0 | .
CC(=O)Nc1nnc(SCc2cccc(C(F)(F)F)c2)s1
    -20.0 | .
C=CCNC(=O)CN1C(=O)/C(=C/c2ccccc2)Sc2ccccc21
    -4.0 | 1.0
COc1cccc(OC)c1C(=O)NC(=O)Nc1c(C)cccc1C
    5.0 | .
COC(=O)Oc1ccc2c(=O)c(Oc3ccc(C)cc3)coc2c1
    -3.0 | .
Cc1cccc(-n2c(SCC(=O)O)nnc2-c2cccs2)c1C
    -12.0 | .
N#Cc1ccc(/C=N/NC=O)cc1
    -17.0 | .
CCN(C1CCCCC1)S(=O)(=O)c1ccc(C)cc1
    22.0 | -2.3
O=C(NCC(F)(F)F)C1COc2ccccc2O1 (stereo not drawn)
    2.0 | .
O=S(=O)(Nc1cccc(I)c1)c1cccs1
    -14.0 | 1.2
CC(C)CCNc1ncnc2c1nnn2Cc1ccccc1
    7.0 | -1.2
O=C(Nc1nc(-c2ccc3c(c2)OCCO3)cs1)c1ccccc1
    -1.0 | .
COc1ccc(NC(=O)C2CC(=O)N/C(=N/N=C/c3ccccc3)S2)cc1 (stereo not drawn)
    -21.0 | .
COc1ccc([N+](=O)[O-])c(OC)c1C(N)=O
    . | -0.5
CSc1cccc(NC(=O)CC(C)S(=O)(=O)c2ccc3c(c2)OCC(=O)N3)c1 (stereo not drawn)
    -14.0 | 0.5
CCOC(=O)CSc1nnc(Nc2ccccc2C)s1
    -9.0 | .
COc1ccc(Nc2nc3nonc3nc2Nc2c(C)n(C)n(-c3ccccc3)c2=O)cc1
    . | -1.7
CCN(CC)c1cc(Oc2ccccc2)ncn1
    -1.0 | .
O=C(CSc1nnc(-c2cccnc2)o1)N(C1CCCCC1)C1CCCCC1
    7.0 | -2.0
CN(Cc1ccccc1)C(=O)COC(=O)c1ccc(Br)o1
    -15.0 | 0.1
Nc1ccc(Oc2ccccc2F)nc1
    . | 3.0
CCOC(=O)N1CCC(N2Cc3cccc(C(=O)Nc4cc(F)ccc4F)c3C2=O)CC1
    -2.0 | .
CC(=O)Nc1ccc(C(C)(C)C)cc1N
    . | -3.8
CC(C)(C)OC(=O)N1CCN(C(=O)c2ccccc2C(=O)O)CC1
    . | 0.2
CCOC(=O)c1sc(N)c(C#N)c1COC(=O)CC1Sc2ccccc2NC1=O (stereo not drawn)
    -108.0 | .
Clc1cc2c(c3ncccc13)OCN(C1CCCC1)C2
    15.0 | .
N#CC1=C(N)OC2=C(C(=O)CCC2)C12C(=O)Nc1ccc(Br)cc12 (stereo not drawn)
    . | -2.7
COc1cc2c(cc1OC)CN(C(=O)Cn1c(C)cc(C)c(C#N)c1=S)CC2
    4.0 | 2.6
Cc1ccc(C=Nc2ccccc2C(N)=O)o1
    . | -0.5
O=C(Nc1ccccc1Cl)N1CCN(C/C=C/c2ccccc2)CC1
    25.0 | .
Cc1nc2cc(-c3ccccc3)nn2c(C)c1CCC(=O)NCc1ccco1
    -21.0 | .
Nn1c(COc2ccccc2)n[nH]c1=S
    -2.0 | .
Cc1ccc2onc(CC(=O)NCc3cccc(Cl)c3)c2c1
    1.0 | -0.5
COc1ccccc1Nc1c2c(nc3ccc(NC(=O)CCN4CCOCC4)cc13)CCCC2
    11.0 | -0.2
CCC(=O)Nc1ccc(F)c(Cl)c1
    . | -0.5
COc1ccc(C(=O)CSc2nnc(-c3ccco3)c(-c3ccco3)n2)cc1
    -11.0 | 50.9*
O=C(NCc1ccco1)c1n[nH]c(=O)c2ccccc12
    0.0 | .
O=C1NN=C(c2ccccc2)Cn2c1cc1ccccc12
    9.0 | 0.8
COc1ccc(-c2nnsc2NC(=O)c2ccccc2CO)cc1
    . | 1.0
CCCCC(=O)Nc1cccc2c1C(=O)N(c1ccccc1)C2=O
    17.0 | 1.1
O=C(O)c1ccc(NS(=O)(=O)c2ccc3nnn(O)c3c2)cc1
    -14.0 | .
Cc1cccc(C(=O)N(C)C2CCCCC2)c1C
    . | -2.6
N=C1c2ccccc2CN1Cc1ccc(CN2Cc3ccccc3C2=N)cc1
    11.0 | .
N/C(CC(=O)Nc1ccccn1)=N\O
    2.0 | .

Further entries follow:
Value order – S aureus helic | MgrA DNA FP
CCSc1nnc(-c2c[nH]c3ccccc23)n1-c1cccc(OC)c1
    14.0 | -4.2
CCOC(=O)Nc1ccc2c(COC(=O)c3cc(-c4ccco4)nc4ccccc34)cc(=O)oc2c1
    21.0 | .
COc1ccc(OC)c(NC(=O)CSc2cn(C)c3ccccc23)c1
    -3.0 | .
O=C(COCc1cc(-c2ccc(F)cc2)on1)NCC1CCCO1 (stereo not drawn)
    20.0 | -2.3
CN(Cc1ccc(-c2ccc(Br)cc2)o1)C(=O)c1ccc(S(N)(=O)=O)cc1
    -1.0 | .
C=CCSC1=C(C#N)C(c2cccc(Cl)c2Cl)CC(=O)N1 (stereo not drawn)
    -32.0 | .
COc1ccc(NC(=O)Cn2ccc3c(OC)cccc3c2=O)cc1
    4.0 | .
CCN1CCN(Cc2ccc(NC(=O)Nc3ccc(SC)cc3)cc2)CC1
    6.0 | .
O=C1Nc2ccc(Br)cc2/C1=C/C(=O)c1ccc(-c2ccccc2)cc1
    . | 2.0
CCN(CC)c1ccc(/C=C2\CC/C(=C\C(C)C)C2=O)cc1
    -98.0 | .

Records above shown as hits in MgrA DNA FP.
Value order – S aureus helic | MgrA DNA FP
COc1ccc(C(=O)CSc2nnc(-c3ccco3)c(-c3ccco3)n2)cc1
    -11.0 | 50.9*

More structures follow.
Value order – S aureus helic | MgrA DNA FP
CC(C)[C@H](NC(=O)OCc1ccccc1)C(=O)N[C@H](C=O)Cc1ccccc1
    . | 0.0
O=C1CCN(c2cc(Nc3cccc(F)c3)c3c4c(onc24)-c2ccccc2C3=O)CC1
    -97.0 | .
O=C1OC(c2ccccc2)C(O)(c2ccccc2)C12CCCC2 (stereo not drawn)
    4.0 | .
CCc1nc2ccc(C(=O)NCCN3CCCCC3C)cc2nc1CC (stereo not drawn)
    3.0 | .
CC(C)N(C(=O)C12CC3CC(CC(C3)C1)C2)c1ccccn1
    -16.0 | -3.1

Source: PubChem BioAssay (ICCB-Longwood Screening Facility, Harvard Medical School)
